BRCT PPI red – qHTS Assay for Inhibitors of BRCT-Phosphoprotein Interaction (Red Fluorophore) | BRCT-phosphopeptide binding, red fluorescence polarization | Potency, µM (titrated, usually from 76.9 µM), inactives show at the top dose activity change, negative = inhibition, usual class: inhibitors | actives 0.03% (n = 75,000); further: on the % scale 0 is the no-effect control and ±100 the full control effect
Target sequence (P38398 whole entry, looked up): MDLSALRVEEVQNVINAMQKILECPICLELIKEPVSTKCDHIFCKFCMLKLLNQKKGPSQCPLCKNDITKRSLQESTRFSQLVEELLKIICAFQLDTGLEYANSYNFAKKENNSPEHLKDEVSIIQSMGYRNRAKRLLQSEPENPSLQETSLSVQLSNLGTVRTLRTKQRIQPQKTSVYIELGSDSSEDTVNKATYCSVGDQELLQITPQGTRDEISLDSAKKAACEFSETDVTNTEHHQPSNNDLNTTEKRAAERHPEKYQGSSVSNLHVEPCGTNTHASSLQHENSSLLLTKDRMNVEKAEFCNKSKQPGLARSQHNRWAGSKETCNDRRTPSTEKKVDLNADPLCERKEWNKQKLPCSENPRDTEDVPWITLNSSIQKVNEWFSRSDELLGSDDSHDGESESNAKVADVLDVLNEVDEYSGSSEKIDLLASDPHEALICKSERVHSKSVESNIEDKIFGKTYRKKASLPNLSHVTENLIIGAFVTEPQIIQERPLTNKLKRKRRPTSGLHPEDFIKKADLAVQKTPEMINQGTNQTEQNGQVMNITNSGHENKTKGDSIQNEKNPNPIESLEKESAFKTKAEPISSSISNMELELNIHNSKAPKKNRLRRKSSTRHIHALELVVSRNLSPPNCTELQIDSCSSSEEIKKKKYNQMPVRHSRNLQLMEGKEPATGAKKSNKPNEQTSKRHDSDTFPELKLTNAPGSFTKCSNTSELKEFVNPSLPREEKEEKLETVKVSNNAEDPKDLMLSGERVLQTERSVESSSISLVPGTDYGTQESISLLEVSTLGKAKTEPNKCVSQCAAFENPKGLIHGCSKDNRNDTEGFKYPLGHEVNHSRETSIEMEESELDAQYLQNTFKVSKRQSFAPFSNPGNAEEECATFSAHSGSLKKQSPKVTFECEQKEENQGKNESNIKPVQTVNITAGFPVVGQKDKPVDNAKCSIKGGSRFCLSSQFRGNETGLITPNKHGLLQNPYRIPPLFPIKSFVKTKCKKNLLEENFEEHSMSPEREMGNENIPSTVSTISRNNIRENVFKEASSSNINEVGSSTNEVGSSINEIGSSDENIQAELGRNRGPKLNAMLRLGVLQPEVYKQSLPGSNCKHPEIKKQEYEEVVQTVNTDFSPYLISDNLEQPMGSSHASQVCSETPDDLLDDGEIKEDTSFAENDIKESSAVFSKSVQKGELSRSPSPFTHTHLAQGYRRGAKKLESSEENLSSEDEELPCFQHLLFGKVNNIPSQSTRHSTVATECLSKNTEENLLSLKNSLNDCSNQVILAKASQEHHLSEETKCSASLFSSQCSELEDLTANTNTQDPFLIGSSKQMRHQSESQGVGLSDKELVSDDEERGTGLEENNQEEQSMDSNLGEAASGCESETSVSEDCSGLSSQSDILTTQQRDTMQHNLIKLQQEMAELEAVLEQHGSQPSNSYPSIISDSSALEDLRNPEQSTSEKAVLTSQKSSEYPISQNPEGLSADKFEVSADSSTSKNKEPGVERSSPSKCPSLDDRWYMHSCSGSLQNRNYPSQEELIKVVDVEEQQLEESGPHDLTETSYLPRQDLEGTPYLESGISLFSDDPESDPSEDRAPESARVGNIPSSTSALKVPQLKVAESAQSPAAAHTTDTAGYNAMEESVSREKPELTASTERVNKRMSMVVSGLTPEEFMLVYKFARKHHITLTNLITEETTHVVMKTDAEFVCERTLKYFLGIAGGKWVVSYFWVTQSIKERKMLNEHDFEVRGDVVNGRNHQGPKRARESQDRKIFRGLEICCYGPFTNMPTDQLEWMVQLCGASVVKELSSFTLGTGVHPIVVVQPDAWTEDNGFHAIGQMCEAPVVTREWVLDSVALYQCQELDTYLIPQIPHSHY
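Rhodamine-labelled pBACH1 10-mer (100 nM) bound to BRCT domain (100 nM) at pH 7.3; compounds incubated 12 min room temperature, polarization read. Free peptide defines full inhibition; unlabelled decapeptide titrated as control.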
Hsp90 Hop PPI – qHTS Assay for Disrupters of an Hsp90 Co-Chaperone Interaction. AlphaScreen TPR2A-His6 binding biotin-Hsp90 C-terminal peptide. Potency, µM (doses to about 57 µM), inactives show at the top dose activity change, negative = inhibition. actives 0.44% (n = 71,000). AID 595, 2007; active means well fitted curve in either direction with a large enough effect; inconclusive means small, poorly fitted or top-dose-only effect, or another doubt; further: potency means the concentration at half of the fitted maximal effect; on the % scale 0 is the no-effect control and ±100 the full control effect; many of its hits are not listed in these tables
UbGFP stabilizer – Ubiquitin-GFP Assay | Ubiquitin-GFP reporter cells, proteasome inhibition, GFP fluorescence; response scale: untreated = 0%, 10 µM MG-132 = 100% | 67,000 tested, under 10 active | Potency, µM (doses to about 45.9 µM), inactives show at the highest dose activation (GFP accumulation), most hits filed as activators; active means well fitted activation curve with a large enough effect, not every such curve was filed as active; inconclusive means small, poorly fitted or top-dose-only effect, or another doubt; inactive means no such curve, though single readings can be large or run the other way; further: potency means the concentration at half of the fitted maximal effect
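Reporter cells (U2OS, ubiquitin-G76V-GFP fusion) are plated overnight, then treated 4 hr at 37 °C with compound titrations from 46 uM down to 2.9 nM. Activity is scaled against untreated cells and 10 uM MG-132.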
GFP derepression – qHTS Assay for Epigenetic Modulators; mouse C127i GFP locus derepression, cytometry, 30 h; Potency, µM (highest dose often 46.1 µM), for the others: at the highest dose GFP derepression (activation); actives 0.09% (n = 68,000); AID 597, 2007; further: % of control where 0% means no effect
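Locus derepression in mouse mammary C127i cells whose integrated CMV-GFP reporter is normally silent; GFP expression after 30 h compound treatment was quantified by counting fluorescent cells.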
15-hLO inh – qHTS Assay for Inhibitors of 15-hLO (15-human lipoxygenase); Polyunsaturated fatty acid lipoxygenase ALOX15 (Homo sapiens), P16050; purified 15hLO-1, xylenol orange hydroperoxide absorbance; Potency, µM (highest dose often 57.1 µM), for the others: at the top dose activity change, negative = inhibition, hits mostly inhibitors; actives 1.4% (n = 74,000); AID 887, 2007; further: potency means the concentration at half of the fitted maximal effect; on the % scale 0 is the no-effect control and ±100 the full control effect; nearly all actives have a fitted effect of over 55% in size
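Quantitative HTS in 25 mM Hepes pH 7.5 containing 0.01% Triton X-100: human 15hLO-1 at 40 nM, arachidonic acid at 50 uM, 6 min turnover. Product quantified via ferrous oxidation/xylenol orange, 573:405 nm absorbance ratio.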
BRCT PPI green – qHTS Assay for Inhibitors of BRCT-Phosphoprotein Interaction (Green Fluorophore) | Potency, µM (doses to about 76.9 µM), for the others: top-dose activity change, negative = inhibition, hits mostly inhibitors | AID 875, 2007 | Breast cancer type 1 susceptibility protein (Homo sapiens), P38398 | actives 0.05% (n = 75,000) | BRCA1 BRCT-phosphopeptide binding, green fluorescence polarization;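 further: potency means the concentration at half of the fitted maximal effect; plate controls were peptide without protein for full effect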
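Fluorescence polarization: His-tagged BRCT (~35 kDa BRCA1 C-terminus, 250 nM) bound to 100 nM fluorescein-labeled phosphorylated 10-aa BACH1 peptide, pH 7.3 phosphate buffer with DTT and Tween 20. Compounds incubated 12 min at room temperature; inhibition read as lowered polarization.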
Pol III holo inh – qHTS Assay for Inhibitors of DNA Polymerase III Holoenzyme System. Potency, µM (highest dose often 57.1 µM), inactives show at the highest dose activity change, negative = inhibition. reconstituted DNA polymerase III holoenzyme replication, biochemical. actives 0.25% (n = 71,000); further: potency means the concentration at half of the fitted maximal effect; on the % scale 0 is the no-effect control and ±100 the full control effect
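Reconstituted *E. coli* holoenzyme (0.35 nM Pol III, 1 nM beta, 154 nM SSB, 2 nM primase) was preincubated with compound for 15 min at RT. Synthesis on 1.4 nM ssM13Gori ran 35 min, then was stopped with PicoGreen/EDTA and read as dsDNA fluorescence.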
USP2a inhib – qHTS Assay for Inhibitors of Ubiquitin-specific Protease USP2a. Potency, µM (doses to about 38.3 µM), for the others: top-dose activity change, negative = inhibition, actives largely listed as inhibitors. Ubiquitin carboxyl-terminal hydrolase 2 (Homo sapiens), O75604. USP2a enzymatic assay, qHTS inhibition. actives 0.1% (n = 60,000). AID 927, 2007;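 further: potency means the concentration at half of the fitted maximal effect; nearly all actives have a fitted effect of over 60% in size; plate controls were DMSO for no effect and NEM full inhibition control for full effect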
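20 nM USP2 core + cpd, 30 min RT; add 20 nM Ub-PLA2/20 uM NBD C6-HPC; read Ex460/Em535 at 0 h and 2.5 h. Normalized to NEM; qHTS curve fit/classification.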
HBB splicing – qHTS Assay for Modulators of Hemoglobin Beta Chain Splicing; actives 0.06% (n = 65,000); Potency, µM (doses to about 46.1 µM), without a hit: top-dose activation, usual class: activators; HBB splicing reporter cell assay, activation; EGFP reporter with mutant IVS2-654 intron; response scale: normalised to 500 nM splice-correcting PNA; AID 925, 2007; further: potency means the concentration at half of the fitted maximal effect; 0% is about no effect
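Compounds were applied for 2 days to HeLa EGFP-654 cells, 500/well in Optimem with 2% FCS. The reporter's EGFP is disrupted by mis-splicing of beta-globin intron IVS2-654. Readout: summed well GFP fluorescence from 488 nm laser scanning; reference was 500 nM antisense […] 654 PNA.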
CRE-bla Fsk – Cell signaling CRE-BLA (Fsk stim) | CHO CRE-bla reporter (cAMP response element driving beta-lactamase), forskolin EC10, beta-lactamase ratio | Potency, µM (titrated, usually from 38.2 µM), without a hit: at the highest dose activity change, negative = inhibition, hits mostly activators | actives 2.5% (n = 71,000) | AID 662, 2007; active means well fitted activation curve with a large enough effect in the signal ratio, with a control signal flat, not every such curve was filed as active; inconclusive means small, poorly fitted or top-dose-only effect, or effect the other way, or a change in a side signal; the % refers to the signal ratio; further: potency means the concentration at half of the fitted maximal effect; % of control where 0% means no effect
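Forskolin analogue NKH 477 at EC10 stimulated CRE-driven beta-lactamase in CHO cells alongside compound dilution series. Beta-lactamase was measured with CCF4, excitation 405 nm, emission ratio 460/530 nm.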
Starred values were filed as active, the others as inactive; u = inconclusive; x = no result given; [ ] = another dose, or the depositor's remark. Unless noted, the call rests on the fitted dose curve; in most records, active means well fitted curve in the direction sought with a large enough effect; inconclusive means small, poorly fitted or top-dose-only effect, or another doubt; inactive means no such curve, though single readings can be large; an effect the other way counts as inactive or inconclusive. This is a subset. The share of hits here may be higher or lower than overall.

(1) CCN(Cc1cc2ccccc2[nH]c1=O)S(=O)(=O)c1ccccc1
(2) CCOC(=O)c1cnc(C(C)(C)C)[nH]c1=O
(3) COc1cc2c(cc1OC)CN(C(=O)C(C)(C)C)CC2
(4) Cn1cccc1Cc1nnc(SCC(=O)Nc2ccc3c(c2)OCCO3)n1CCc1ccccc1
(5) Cc1cccc(C(C)C)c1NC(=O)c1cccnc1
(6) COc1ccc(CCN2C(=O)c3[nH]nc(-c4ccccc4O)c3C2c2ccccc2)cc1OC (stereo unspecified)
(7) COc1ccc(S(=O)(=O)Nc2ccccc2C(=O)NC(C)C)cc1OC
(8) C=C1c2c(Cl)ccc(O)c2C(O)=C2C(=O)[C@@]3(O)C(O)=C(C(N)=O)C(=O)[C@@H](N(C)C)[C@@H]3[C@@H](O)[C@H]12
(9) Cn1c(=O)c2c(nc(-n3ccnc3)n2Cc2ccc(Cl)cc2Cl)n(C)c1=O
(10) Cn1c(C(=O)NCc2cccs2)cc2oc3ccccc3c21

| Compound | 1 | 2 | 3 | 4 | 5 | 6 | 7 | 8 | 9 | 10 |
| --- | --- | --- | --- | --- | --- | --- | --- | --- | --- | --- |
| BRCT PPI red | -1.1% | -1.3% | -0.2% | 0.6% | -0.3% | -0.1% | -2.2% | 0.2%[34.4 µM] | -1.6% | 0.5% |
| Hsp90 Hop PPI | -3.4% | -3.4% | -1.5% | -21.9% | -0.5% | -5.2% | -3.9%[11 µM] | -4.2%[26 µM] | -20.9% | x |
| UbGFP stabilizer | 1.4% | -1.2% | -12.5% | -2.9% | -4.7% | -1.1% | -4.5%[9.17 µM] | 5.1%[20.5 µM] | -12.5% | x |
| GFP derepression | 5.7% | 5.8% | -2.2% | 0.0% | 0.0% | 4.3% | -1.5% | 0.0%[20.6 µM] | -1.6% | x |
| 15-hLO inh | u | 13.6% | 3.3% | u | -2.4% | -14.4% | -3.2%[11.4 µM] | 1.0%[25.6 µM] | 8.7% | -16.0% |
| BRCT PPI green | -2.1% | 0.3% | -3.5% | -0.3% | 1.0% | -2.7% | -5.6% | -2.0%[34.4 µM] | 1.9% | -1.0% |
| Pol III holo inh | -3.0% | 3.1% | -6.3% | 2.5% | -5.6% | -9.0% | 1.8%[11.4 µM] | -4.9%[25.6 µM] | -4.3% | x |
| USP2a inhib | 24.3% | -6.5% | -0.6% | x | 1.6% | 23.6% | -5.8%[7.66 µM] | 42.1%[activator][17.1 µM] | 0.3% | x |
| HBB splicing | -1.7% | 3.8% | 0.5%[9.22 µM] | -1.7% | 0.3% | -6.0%[0.369 µM] | -1.6%[0.0738 µM] | 0.6%[20.6 µM] | -3.0% | x |
| CRE-bla Fsk | u | 0.7% | u | -20.8% | 3.3% | u | u | -7.7%[17.1 µM] | 7.2% | x |

Part of the list above in order of number of heavy atoms, rising:
(2) CCOC(=O)c1cnc(C(C)(C)C)[nH]c1=O
(5) Cc1cccc(C(C)C)c1NC(=O)c1cccnc1
(3) COc1cc2c(cc1OC)CN(C(=O)C(C)(C)C)CC2
(10) Cn1c(C(=O)NCc2cccs2)cc2oc3ccccc3c21
(1) CCN(Cc1cc2ccccc2[nH]c1=O)S(=O)(=O)c1ccccc1
(7) COc1ccc(S(=O)(=O)Nc2ccccc2C(=O)NC(C)C)cc1OC
(9) Cn1c(=O)c2c(nc(-n3ccnc3)n2Cc2ccc(Cl)cc2Cl)n(C)c1=O
(6) COc1ccc(CCN2C(=O)c3[nH]nc(-c4ccccc4O)c3C2c2ccccc2)cc1OC (stereo unspecified)
(4) Cn1cccc1Cc1nnc(SCC(=O)Nc2ccc3c(c2)OCCO3)n1CCc1ccccc1

| Compound | 2 | 5 | 3 | 10 | 1 | 7 | 9 | 6 | 4 |
| --- | --- | --- | --- | --- | --- | --- | --- | --- | --- |
| BRCT PPI red | -1.3% | -0.3% | -0.2% | 0.5% | -1.1% | -2.2% | -1.6% | -0.1% | 0.6% |
| Hsp90 Hop PPI | -3.4% | -0.5% | -1.5% | x | -3.4% | -3.9%[11 µM] | -20.9% | -5.2% | -21.9% |
| UbGFP stabilizer | -1.2% | -4.7% | -12.5% | x | 1.4% | -4.5%[9.17 µM] | -12.5% | -1.1% | -2.9% |
| GFP derepression | 5.8% | 0.0% | -2.2% | x | 5.7% | -1.5% | -1.6% | 4.3% | 0.0% |
| 15-hLO inh | 13.6% | -2.4% | 3.3% | -16.0% | u | -3.2%[11.4 µM] | 8.7% | -14.4% | u |
| BRCT PPI green | 0.3% | 1.0% | -3.5% | -1.0% | -2.1% | -5.6% | 1.9% | -2.7% | -0.3% |
| Pol III holo inh | 3.1% | -5.6% | -6.3% | x | -3.0% | 1.8%[11.4 µM] | -4.3% | -9.0% | 2.5% |
| USP2a inhib | -6.5% | 1.6% | -0.6% | x | 24.3% | -5.8%[7.66 µM] | 0.3% | 23.6% | x |
| HBB splicing | 3.8% | 0.3% | 0.5%[9.22 µM] | x | -1.7% | -1.6%[0.0738 µM] | -3.0% | -6.0%[0.369 µM] | -1.7% |
| CRE-bla Fsk | 0.7% | 3.3% | u | x | u | u | 7.2% | u | -20.8% |

Screens as filed in PubChem BioAssay.
